From PubChem
RanGTP-Imp inh: inhibitors of RanGTP-importin-beta interaction, primary screen, biochemical, FRET, CFP-Ran, YFP-importin-beta, homogeneous; cell-free CFP-Ran/YFP-importin-beta FRET ratio; inhibition, % (test concentration not listed); hit rate 1.1% among 300,000;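 active = most replicates above 15%; inconclusive = exactly half above 15%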;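 also: 0% = DMSO wells and 100% = Ran loaded with GDP instead of GTP; wells of about 40 µL received 100 nL stock; the first replicate is given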
Calb FLC: C. albicans growth modulation with fluconazole; hit rate 0.57% among 300,000; C. albicans CaCi-2 (fluconazole-resistant clinical isolate) + fluconazole, Alamar Blue growth, 48 h; growth inhibition, % (concentration not given with the values);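 active = most replicates above 75%; inconclusive = exactly half above 75%; inactive = most below 75%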;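 also: all wells also contain fluconazole at 8 µg/ml as a sub-toxic cotreatment; 0% = median of DMSO wells and 100% = median of geldanamycin control wells; wells of about 8 µL received 7.5 nL stock; the first replicate is given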
T cruzi inh: blocks replication of Trypanosoma cruzi; T. cruzi beta-gal in NIH3T3, luminescence, 90 h; inhibition, % (no concentration beside the values); hit rate 1.4% among 300,000; AID 1885;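 active = mean inhibition across valid replicates above about 55%, limit read from the data; inconclusive = mean below that limit but half or more replicates reach it; inactive = mean below it, under half of replicates reach it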;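 also: signal also drops with host cell toxicity which is not excluded here; 0% = plate median of DMSO wells and 100% = zero luminescence signal; higher percent means less beta-gal luminescence so fewer parasites; stock transfer was 50 nL into about 50 µL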
AF4-AF9 inh: blocks AF4 peptide binding to human AF9; P42568; AlphaScreen, biotin-AF4 peptide binding to FLAG-AF9; inhibition, % at 10 µM; hit rate 0.47% among 350,000; AID 651704;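 active = every replicate reaching a set inhibition limit, whatever the replicate mean, cut at about 25% in these data; inconclusive = mean inhibition reaches that limit but some replicates miss it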;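 also: 0% = plate neutral control median and 100% = total signal loss; the record names both 10 and 1 µM as test concentration; the first replicate is given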
Target sequence (P42568 whole entry, looked up): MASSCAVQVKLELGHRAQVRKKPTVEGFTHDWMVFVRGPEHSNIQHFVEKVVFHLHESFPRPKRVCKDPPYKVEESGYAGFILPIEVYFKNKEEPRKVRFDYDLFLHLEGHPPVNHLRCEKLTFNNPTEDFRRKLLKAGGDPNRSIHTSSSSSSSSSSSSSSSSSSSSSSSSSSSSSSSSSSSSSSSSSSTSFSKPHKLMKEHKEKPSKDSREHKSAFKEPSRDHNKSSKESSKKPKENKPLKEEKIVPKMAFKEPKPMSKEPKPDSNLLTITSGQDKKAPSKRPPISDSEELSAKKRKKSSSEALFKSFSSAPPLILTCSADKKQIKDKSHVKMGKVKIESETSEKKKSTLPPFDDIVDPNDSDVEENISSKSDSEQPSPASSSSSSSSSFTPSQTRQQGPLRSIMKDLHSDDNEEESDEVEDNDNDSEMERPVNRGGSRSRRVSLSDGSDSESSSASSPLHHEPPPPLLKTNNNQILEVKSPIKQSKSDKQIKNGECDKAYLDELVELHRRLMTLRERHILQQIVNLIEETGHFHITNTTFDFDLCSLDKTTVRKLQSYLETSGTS
Ecoli rRNA inh: selective bacterial rRNA inhibition in E. coli; hit rate 1.6% among 350,000; E. coli WT GFP vs humanized-ribosome RFP mutants, fluorescence, 24 h; stronger effect = lower value; DMSO median 0, no signal -100; GFP signal change (wild-type ribosome), % (test concentration not listed);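 active = significant combined selectivity score with lowered wild-type GFP, culture density cut under 30%, mutant RFP and density less affected; inactive = any of these conditions unmet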; also: one replicate is shown; some compounds called inactive have numbers as strong as hits
Beta apoptosis: blocks beta cell apoptosis; protection from apoptosis, % (test concentration not listed); INS-1E cytokine-induced death, ATP luminescence, 48 h; percent of positive-control rescue, neutral wells zero; hit rate 0.8% among 300,000; AID 435005;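 active = all replicates at 75% or more, or half of them and the mean; inconclusive = half reach 75% but not the mean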;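 also: 0% = cytokine-treated negative control wells and 100% = positive control rescue; higher means more ATP so stronger rescue from cytokine killing; wells of about 40 µL received 100 nL stock; the first replicate is given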
FGF22 binding: binders of recombinant human FGF22 by thermal shift; SYPRO orange fluorescence; percent of sucrose octasulfate shift, DMSO zero; hit rate 1.5% among 340,000; calls only at 9.99 µM; AID 651658;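 active = melting point raised past a set limit in the mean and every replicate; inconclusive = no clear call; three in four hits are not shown here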
Target sequence (Q9HCT0 whole entry, looked up): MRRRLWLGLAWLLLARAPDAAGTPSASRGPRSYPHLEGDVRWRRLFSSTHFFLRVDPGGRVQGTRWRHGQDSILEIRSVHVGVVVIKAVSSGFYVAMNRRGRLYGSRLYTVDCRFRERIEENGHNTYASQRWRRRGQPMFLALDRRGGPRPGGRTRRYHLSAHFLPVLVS
ALR inh: blocks human ALR sulfhydryl oxidase activity; purified ALR, DTT oxidation, H2O2 HRP-luminol luminescence; inhibition, % (concentration not given with the values); hit rate 3.8% among 290,000; AID 485317;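 active = mean and each replicate at 75% or more; inconclusive = only one of the two met; inactive = neither met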;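 also: stock transfer was 7.5 nL into about 7.5 µL; 0% = neutral wells and 100% = wells with inactivated enzyme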
Target sequence (P55789 whole entry, looked up): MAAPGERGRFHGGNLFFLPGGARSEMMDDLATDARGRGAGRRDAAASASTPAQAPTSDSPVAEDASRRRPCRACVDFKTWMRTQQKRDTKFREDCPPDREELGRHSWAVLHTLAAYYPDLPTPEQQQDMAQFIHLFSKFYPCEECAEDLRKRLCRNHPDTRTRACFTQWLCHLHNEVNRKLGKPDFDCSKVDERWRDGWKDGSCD
Ecoli rRNA inh OD600: second read-out of Ecoli rRNA inh, no call of its own (marks repeat the call); OD600 change, %; measured here: OD600 growth;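 optical density of the mix in the first replicate; 0 = DMSO median and -100 = no signal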
Ecoli rRNA inh RFP: further read-out of Ecoli rRNA inh, marked with its call; RFP signal change, %; measured here: RFP humanized mutant strains;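 first replicate; 0 = DMSO median and -100 = no signal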
The depositor's hits bear a star; i = inactive; ? = inconclusive; . = no result given.

SMILES	RanGTP-Imp inh	Calb FLC	T cruzi inh	AF4-AF9 inh	Ecoli rRNA inh	Ecoli rRNA inh OD600	Ecoli rRNA inh RFP	Beta apoptosis	FGF22 binding	ALR inh
CCOc1ccc(CCNC(=O)C(CC)n2nc(C)n3c(cc4sccc43)c2=O)cc1OCC (stereo not drawn)	-0.7	-9	59*	.	.	.	.	-8	.	-8
COc1cc(CNC(=O)c2ccccc2NC(=O)C2=C(C)OCCS2)cc(OC)c1OC	-3.0	0	-10	0.9	1	2	-0.7	-1	i	1
C=CCn1c(N)cc(=O)nc1SCC(=O)Nc1ccc(C(=O)OC)cc1	2.0	-3	5	-0.5	4	8	2.2	-2	i	99*
NS(=O)(=O)c1cccc(NC(=O)CSc2nnc(C3CC3)n2C2CC2)c1	.	.	.	0.7	5	11	-0.4	-7	i	0
COc1ccc(-c2cc(C(F)F)n3ncc(C(=O)Nc4cccc(S(=O)(=O)N5CCOCC5)c4)c3n2)cc1	5.1	16	54	-2.7	13	13	1.5	14	i	-5
COc1ccc(C(=O)/C(C#N)=N/Nc2cccc([N+](=O)[O-])c2)cc1	-0.5	16	22	-3.3	0	-3	3.2	.	i	.
CCC(C)n1c(SCC(=O)/C(C#N)=C(\C)N)nc2ccccc2c1=O (stereo not drawn)	0.1	-5	17	.	.	.	.	-5	.	18
CC(C)(C)c1ccc(-c2noc(-c3ccc4c(c3)CCO4)n2)cc1	3.1	1	-9	0.1	34	19	3.7	11	i	.
O=C(Cc1ccc(F)cc1)N1CCC(CC2CC(c3cccc(Br)c3)=NO2)(C(=O)NCC2CCCCC2)CC1 (stereo not drawn)	?	21	27	1.9	8	10	3.4	1	i	9
COc1ccc(-n2c3c(cc(C(=O)NNc4ccccc4C)c2=O)C(=O)CC(C)(C)C3)cc1	0.1	-7	18	0.2	-3	-1	0.1	1	i	-6
Cc1cccc(C)c1NC(=O)NC1CCc2ccccc21 (stereo not drawn)	-4.2	1	7	-0.9	13	22	1.9	-2	i	-3
Cc1cccc(Nc2nnc(SCC(=O)NC(=O)Nc3ccc4c(c3)OCCO4)s2)c1	-3.9	-5	3	11	16	9	1.4	0	i	-11
O=[N+]([O-])c1ccc(OCC(O)CN(C2CCCCC2)C2CCCCC2)cc1 (stereo not drawn)	1.7	-16	0	2.3	10	-1	-4.6	-2	i	-4
CC(OC(=O)c1ccc(Cl)nc1)C(=O)Nc1ccc2c(c1)OCO2 (stereo not drawn)	.	.	.	0.9	.	.	.	4	i	-16
COc1ccc(CC(=O)Oc2ccc(F)cc2)cc1	-0.8	51	2	-1.4	10	-1	-0.8	-9	i	-16
COc1ccc(CN2C(=O)c3c(c(C)n(C)c3C)C2C(=O)NC2CCC(C)CC2)cc1 (stereo not drawn)	1.5	-46	3	3.1	6	3	-12	-8	i	-3
O=C(NCC(c1ccco1)N1CCOCC1)c1ccc(C(F)(F)F)cc1 (stereo not drawn)	1.1	1	3	-5.4	-1	9	0.1	-3	i	-1
CC(C)c1nc(=S)n(-c2ccccc2)[nH]1	7.1	-10	-8	.	.	.	.	1	.	90*
COc1ccc(OCCCC(=O)OCC(=O)Nc2nnc(-c3ccccc3)o2)cc1	.	.	.	0.5	-5	-15	5.4	0	i	-1
Cc1nc([N+](=O)[O-])cn1CC(=O)Nc1ccc(Cl)cc1	0.9	-4	2	-3.0	-4	-11	6.7	-10	i	-2
CC(=O)c1cc(CN2CCC(n3nccc3NC(=O)c3ccccc3)CC2)cs1	2.0	-10	12	2.1	0	2	-1.8	3	i	-7
CN(C)C(=O)COc1ncnc2scc(-c3ccc(F)cc3)c12	-7.8	3	-17	2.1	13	-8	0.4	-4	i	-9
Cc1cc(S(=O)(=O)NCC(c2ccc(F)cc2)N2CCN(C)CC2)ccc1F (stereo not drawn)	-0.5	0	41	2.3	1	8	0.4	0	i	-2
Cc1nc(SCC(=O)Nc2ccccc2Cl)oc1C	-0.5	13	-3	2.5	-5	-7	-1.7	-7	i	99*
Nc1c(-c2ccccc2)sc2ccc3ccccc3[n+]12	0.0	0	19	2.3	-22	28	10	.	i	-7
CCOC(=O)C(Oc1ccc2c(-c3ccc(OC)cc3)cc(=O)oc2c1C)c1ccccc1 (stereo not drawn)	3.7	8	40	.	.	.	.	21	.	-10
O=S(=O)(Nc1ncccn1)c1ccccc1	-1.3	-1	-6	0.2	-12	-7	3.6	-7	i	-6
Nc1c(C(=O)c2ccco2)oc2ccccc12	2.3	-10	-2	5.8	0	3	-5.3	3	i	4
c1ccc2c(Nc3nncs3)c3ccccc3nc2c1	59*	5	10	-31	0	-6	-3.2	0	i	-6
COc1cc(-c2cc(-c3ccc(O)cc3)nc(N)c2C#N)ccc1O	-2.7	9	8	-0.2	-31	-57	14	-19	i	97*
O=C(O)c1cc2ncc(-c3[nH]ncc3[N+](=O)[O-])cn2n1	-1.4	-8	3	0.2	27	15	0.5	-5	i	-10
COc1cc(CN2CCc3ccc(NC(=O)CCc4ccccc4OC)cc3C2)ccc1O	4.8	-4	30	3.6	-2	-8	1.9	2	i	-1
CCOc1ccc(CCNC(=O)c2cc([N+](=O)[O-])ccc2N2CCOCC2)cc1OCC	1.1	-8	9	2.2	-7	2	0.1	-1	i	-5
CCC(C)C(NC(=O)c1ccc(Cl)cc1Cl)C(=O)O (stereo not drawn)	-0.3	19	-14	.	.	.	.	-6	.	1
CCOC(=O)N1CCC(N2C(=O)c3ccccc3C2Nc2ccc(S(=O)(=O)N3CCOCC3)cc2)CC1 (stereo not drawn)	5.4	20	10	1.3	5	-9	0.7	-3	i	-15
O=C(CCc1n[nH]c(=O)[nH]c1=O)N/N=C/c1ccc(Br)o1	0.8	1	-27	-3.4	-4	-1	-1.6	-8	i	.
O=C(CSc1nc2ccc(Cl)cc2[nH]1)NCCc1ccccc1	-7.8	-9	2	-0.7	-9	-2	-7.4	5	i	-25
O=C(CN1CCN(CC(=O)Nc2ccccc2F)CC1)Nc1ccc2c(c1)OCCO2	-1.1	5	9	-1.5	-7	-8	-2.8	1	i	-3
COc1ccccc1C(=O)OCn1nnc2ccccc2c1=O	2.3	3	-8	6.1	1	-1	-4.4	-7	i	-4
CCNc1ccc(C(=O)O)cc1N	2.1	-11	-22	-5.3	-15	4	40	-9	i	98*
O=C(NCC1CCN(c2ccc(S(=O)(=O)N3CCOCC3)cc2)CC1)c1cccc(Cl)c1	0.6	15	-6	.	.	.	.	14	.	-1
O=C(COc1ccccc1F)N1CCN(S(=O)(=O)/C=C/c2ccccc2)CC1	1.9	0	-7	.	.	.	.	-4	.	-23
CCCc1nc(SCC(=O)N2CCCC2)c2ccccc2n1	-0.5	22	6	.	.	.	.	-4	.	50
CN(Cc1cccnc1)C(=O)CC1C(=O)NCCN1Cc1ccc(-c2ccccc2)cc1 (stereo not drawn)	-0.3	5	5	-1.3	8	2	-1.3	-2	i	-7
O=C(Nc1ccc2c(c1)oc1ccccc12)C1CC1	2.8	-2	14	.	.	.	.	14	.	4
CCCc1cc(C(=O)NC2CCCN(Cc3ccccc3F)C2)no1 (stereo not drawn)	7.8	-10	14	-5.4	3	1	-0.9	-1	i	-3
COc1ccccc1NS(=O)(=O)c1cccc(C(=O)N2CC(C)OC(C)C2)c1 (stereo not drawn)	-0.3	-1	-1	-1.5	10	3	1.5	-1	i	1
COc1ccc(-n2nnnc2SCC(=O)NCc2cccs2)cc1	-1.7	-9	0	-1.9	8	7	-2.0	3	i	-11
COc1ccc(S(=O)(=O)N2CCN(c3ccc(F)cc3)CC2)cc1C(=O)N1CCCC1	3.9	-16	20	1.8	0	6	-3.2	-2	i	.
COC(=O)CSc1nccc(-c2ccc(F)cc2)c1C#N	-0.9	8	5	-3.3	0	0	-9.9	3	i	-12
COc1ccc(NS(=O)(=O)c2ccc(Cl)c(C(=O)O)c2)cc1S(=O)(=O)N1CCCCC1	-1.7	?	-13	1.5	-2	6	-0.1	-6	i	.
CCOc1ccc(-n2c(C)cc(/C=N/Nc3nc(C)cc(=O)[nH]3)c2C)cc1	2.2	17	19	-28	0	-5	0.8	2	i	-8
O=Cc1cnc2ccccc2c1-c1ccccc1	4.3	1	-6	6.6	-4	-5	5.2	.	i	0
CCn1c(=NC(=O)CSC(C)=O)sc2ccccc21	1.6	11	-10	.	.	.	.	-7	.	45
O=C(CSc1nc(-c2ccccc2Cl)ns1)NCc1ccc2c(c1)OCO2	1.9	-27	4	.	.	.	.	-3	.	.
O=C1C(=O)N(Cc2cccc([N+](=O)[O-])c2)c2ccccc21	3.7	-29	14	-0.2	9	15	1.8	-1	i	-9
COc1ccccc1CN(C)C(=O)C1(c2ccc(Cl)cc2)CC1	-4.4	-8	5	.	.	.	.	-2	.	-76
COc1ccc(CNc2nc3ccccc3n2CCN2CCCCC2)c(OC)c1	2.9	-10	26	.	.	.	.	1	.	69
Cc1ccc(CNC(=O)/C=C/C(=O)O)cc1	-0.5	-16	-7	-0.3	16	9	-1.8	-3	i	0
COc1ccccc1/C=N/NC(=O)CSc1cc(C)nc2ccccc12	.	-3	15	0.8	4	3	-0.3	-3	i	-81

Only AF4-AF9 inh, RanGTP-Imp inh and Ecoli rRNA inh RFP, for three of the compounds above:
| mol | AF4-AF9 inh | RanGTP-Imp inh | Ecoli rRNA inh RFP |
| --- | --- | --- | --- |
| O=C(Nc1ccc2c(c1)oc1ccccc12)C1CC1 | . | 2.8 | . |
| CCCc1cc(C(=O)NC2CCCN(Cc3ccccc3F)C2)no1 (stereo not drawn) | -5.4 | 7.8 | -0.9 |
| COc1ccccc1NS(=O)(=O)c1cccc(C(=O)N2CC(C)OC(C)C2)c1 (stereo not drawn) | -1.5 | -0.3 | 1.5 |

Later entries.
SMILES	RanGTP-Imp inh	Calb FLC	T cruzi inh	AF4-AF9 inh	Ecoli rRNA inh	Ecoli rRNA inh OD600	Ecoli rRNA inh RFP	Beta apoptosis	FGF22 binding	ALR inh
O=C(NCc1ccc(-c2nc3ccccc3s2)cc1)c1cc2ccccc2o1	4.7	0	8	.	.	.	.	-10	.	.
Fc1cc(NC(=S)NCc2ccc(CNC(=S)Nc3ccc(Cl)c(F)c3)cc2)ccc1Cl	2.9	-3	46	-7.8	-12	1	17	16	i	-4
Cc1ccc(C(c2nnnn2C2CCCC2)N2CCN(c3nc4ccccc4s3)CC2)cc1 (stereo not drawn)	0.4	-2	47	.	.	.	.	-1	.	-5
COc1cc(C(=O)NNC(=O)CCOc2ccccc2)cc(OC)c1OC	.	.	.	3.5	-2	-6	-2.1	-3	i	-1
Cc1sc2ncnc(SCC(=O)NC3CCCC3)c2c1C	-3.5	2	9	0.5	-7	3	-0.5	-1	i	2
N#C/C(=C\c1cn(Cc2ccccc2F)c2ccccc12)C(=O)NCc1ccco1	-1.1	5	-8	.	.	.	.	-10	.	1
CC(=O)c1cc(C#N)c(N(C)Cc2ccccc2)nc1C	2.9	20	8	-2.1	-6	1	-1.1	2	i	-1
O=C(Cn1ncn2nc(-c3ccccc3)cc2c1=O)NCc1ccccn1	0.1	4	-17	-2.7	2	15	-0.8	-13	i	-6

A portion of the library; the hit share may differ from the screen's.
